Screens: PubChem, Johns Hopkins Ion Channel Center
KCNQ2 pot = potentiators of rat KCNQ2 potassium channel. AID 2239, 2010. 0.54% of 310,000 active. B-score at 10 µM. CHO-K1 KCNQ2, FluxOR thallium flux fluorescence; hits give high values;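 active means fluorescence ratio B-score at least 3 SD of library B-scores, with initial fluorescence B-score within 3 SD, cut at about 5.3 in these data; same plate scores as AID 2156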;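 further: B-score of peak minus minimum over baseline fluorescence ratio after K+ and Tl+ stimulus; positive B-score means potentiation of KCNQ2 with more thallium influx and brighter signal; only the inactives scoring about 0 or higher are listed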
Target sequence (O88943 whole entry, looked up): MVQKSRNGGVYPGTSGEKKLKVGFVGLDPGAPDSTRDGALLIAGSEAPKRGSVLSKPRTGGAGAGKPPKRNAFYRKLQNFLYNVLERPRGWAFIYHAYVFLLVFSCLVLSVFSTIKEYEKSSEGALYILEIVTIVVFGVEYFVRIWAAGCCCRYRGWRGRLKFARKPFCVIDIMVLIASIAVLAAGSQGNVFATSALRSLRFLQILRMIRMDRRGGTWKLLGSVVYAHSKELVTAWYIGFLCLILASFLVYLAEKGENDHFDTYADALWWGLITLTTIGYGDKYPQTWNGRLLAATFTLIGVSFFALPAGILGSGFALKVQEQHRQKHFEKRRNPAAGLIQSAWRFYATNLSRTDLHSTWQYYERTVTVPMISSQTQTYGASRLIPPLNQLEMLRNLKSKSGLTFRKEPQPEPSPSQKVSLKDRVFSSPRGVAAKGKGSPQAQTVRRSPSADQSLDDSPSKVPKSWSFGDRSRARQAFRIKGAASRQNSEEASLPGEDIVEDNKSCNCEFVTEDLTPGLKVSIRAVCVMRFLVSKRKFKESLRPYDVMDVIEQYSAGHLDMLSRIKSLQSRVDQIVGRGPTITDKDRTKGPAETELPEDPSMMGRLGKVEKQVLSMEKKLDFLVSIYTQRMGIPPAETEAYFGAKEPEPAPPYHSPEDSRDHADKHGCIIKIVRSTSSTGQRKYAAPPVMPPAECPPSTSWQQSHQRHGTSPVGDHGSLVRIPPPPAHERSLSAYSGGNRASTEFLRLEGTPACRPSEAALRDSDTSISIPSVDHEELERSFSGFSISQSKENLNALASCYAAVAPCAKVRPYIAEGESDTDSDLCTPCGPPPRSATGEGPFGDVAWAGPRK
KCNQ2 pot baseline = also measured in KCNQ2 pot; calls as there; B-score; compound at 10 µM; measured here: initial fluorescence intensity artifact check;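 brightness before thallium and not channel activity; 0 = typical well and far values either way flag optical interference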
Starred values were filed as active, the others as inactive.

KCNQ2 pot baseline	KCNQ2 pot	Compound
0.04	0.71	COc1ccc(C(=O)CSc2nc(SC)ns2)cc1OC
2.89	0.96	CC(C)(C)c1ccc(/C=C2\Oc3cc(OC(=O)N4CCOCC4)ccc3C2=O)cc1
-1.83	0.63	COc1cc2oc(-c3ccc(O)cc3)cc(=O)c2c(O)c1OC
-1.4	1.52	COc1ccc(C(=O)/C=C/Nc2ccccn2)c(OC)c1
0.64	0.12	COc1ccc(NC(=O)C#Cc2ccccc2)cc1
-1.96	0.03	O=S(=O)(NCc1csc(-c2cccs2)n1)c1cccc(C(F)(F)F)c1
-0.9	0.37	O=C(c1cccc(C(F)(F)F)c1)C1CCCN(C(=O)CN2CCCC2=O)C1 (stereo not given)
1.1	1.48	c1ccc2c(c1)ncn2Cc1nnc2sc(-c3ccc4c(c3)OCO4)nn12
-0.32	0.35	CCCCN(C(=O)CCC(=O)Nc1cc(C)on1)C(C(=O)NC(C)(C)C)c1ccccc1Cl (stereo not given)
0.05	0.23	COC(=O)Cc1c[nH]c2ccc(OCC(O)CNC(C)C)cc12 (stereo not given)
2.57	1.48	O=C(Nc1cc(C(F)(F)F)ccc1N1CCCCC1)c1ccc(Br)o1
-0.03	0.34	O=C(NCC1CCCN(C(=O)CN2CCCCC2)C1)c1ccccc1Cl (stereo not given)
-0.53	0.95	CCOC(=O)c1cnc(SCC(=O)N2CCN(C(=O)c3ccco3)CC2)nc1N
-1.14	0.08	COc1ccccc1OCCNC(=O)CC(NC(C)=O)c1ccccc1 (stereo not given)
0.47	0.46	O=C(Cn1c(C2CC2)nc2ccccc2c1=O)Nc1ccc(Br)cc1
0.4	0.21	CC1CC(C)CN(C(=O)Cn2c(=O)n(CCCC(=O)NCc3ccco3)c(=O)c3sccc32)C1 (stereo not given)
-0.81	0.7	CCOc1cc(/C=N/Nc2nc(Nc3ccccc3)nc(N3CCCCC3)n2)ccc1OCC(=O)O
-0.26	0.87	CC(=O)Nc1ccc(C(=O)NCC2(N3CCCCC3)CCCCC2)cc1
-1.08	1.2	COc1cc(CCNC(=O)c2ccccc2NC(=O)C2=C(C)OCCS2)cc(OC)c1OC
1.21	0.59	O=C(NCCOc1ccccc1)c1cc(C(=O)NCCOc2ccccc2)cc([N+](=O)[O-])c1
0.91	1.48	O=C(NCC1CCCO1)c1ccccc1-c1nc(-c2ccccc2Cl)no1 (stereo not given)
-1.08	0.74	COCCCNCCOCCOc1c(OC)cccc1OC
-0.35	0.11	C[C@@H](C(=O)Nc1cccnc1)n1c(=O)[nH]c2ccccc2c1=O
0.01	0.75	CCCc1nn(C)c(C(N)=O)c1[N+](=O)[O-]
0.1	1.2	CC(C)(Oc1ccc(Cl)cc1)C(=O)Nc1cccnc1

Exported comma-delimited: part of the list above.
SMILES,KCNQ2 pot baseline,KCNQ2 pot
COc1ccc(NC(=O)C#Cc2ccccc2)cc1,0.64,0.12
COc1cc2oc(-c3ccc(O)cc3)cc(=O)c2c(O)c1OC,-1.83,0.63
O=C(Nc1cc(C(F)(F)F)ccc1N1CCCCC1)c1ccc(Br)o1,2.57,1.48
COCCCNCCOCCOc1c(OC)cccc1OC,-1.08,0.74
c1ccc2c(c1)ncn2Cc1nnc2sc(-c3ccc4c(c3)OCO4)nn12,1.1,1.48

(further entries)
KCNQ2 pot baseline	KCNQ2 pot	Compound
-0.57	0.41	O=C1CC(N2CCOCC2)C(=O)N1CCc1ccccc1 (stereo not given)
0.1	1.44	C/C(=N\NC(=O)Cc1c(F)cccc1Cl)c1cccnc1
-0.94	1.13	Cc1cc(-c2ccc(Cl)cc2)n2ncnc2n1
1.18	0.08	CCOc1ccc(C2C3=C(Nc4nc(N)[nH]c(=O)c42)c2ccccc2C3=O)cc1 (stereo not given)
0.12	1.2	Cc1ccc([C@@H]2[C@@H]3C(=O)N(C)C(=O)[C@@H]3[C@@H]3C(=O)Nc4ccccc4C(=O)N23)cc1
0.18	1.73	COc1cc(/C=N/NC(=O)c2cn(-c3cccc(C)n3)cn2)ccc1O
-1.83	1.32	COc1cccc(CCC(=O)O)c1OC
-1.22	0.8	COc1cc2c(cc1OC)-c1nnc(C)n1C(C)(C)C2
-0.37	0.43	Cn1c(SCC(=O)c2ccc(O)c(O)c2)nnc1-c1ccccc1
0.09	0.04	CCOC(=O)[C@@H]1[C@H]2COc3cc(OC)ccc3[C@@H]2N2C(=O)N(c3cccc(Cl)c3)C(=O)[C@@]12C
-0.25	0.52	N#C/C(=C/c1cn(CC(=O)O)c2ccccc12)c1ccc(F)cc1
-1.14	0.46	CC(=O)c1cccc(NC(=O)/C(=C/c2ccncc2)NC(=O)c2ccccc2)c1
0.15	1.05	COc1ccc(-c2nnc(SCC(=O)NCc3cccs3)n2C)cc1
-0.04	0.06	O=C(O)c1cccc(N2C(=O)c3cc4cccc(Br)c4cc3C2=O)c1
-0.17	0.01	Cc1sc2nc(CN(C(=O)NC3CCCCC3)C3CCCCC3)[nH]c(=O)c2c1C
-0.6	1.17	CCOCCN(C=O)c1cccc(OC)c1
1.29	1.51	Cc1cc(S(=O)(=O)Nc2ccc(C(=O)NCC3(N4CCCCC4)CCCCC3)cc2)ccc1F
-0.58	1.44	O=C(CSc1nnnn1-c1ccc2c(c1)CCC2)Nc1ccc2c(c1)OCCO2
0.01	0.01	Cc1sc2c(c1C)C(O)=C(C(=O)Nc1ccccc1)S(=O)(=O)N2C
0.34	1.46	O=C(CCc1nnc2ccc(NCc3ccco3)nn12)N1CCCCC1
0.12	0.12	CCc1cc(=O)oc2c3c(cc(OCC(=O)NC4CC4)c12)OC(C)(C)CC3
1.47	0.02	N#Cc1ccc(-c2cccnc2)nc1SCC(=O)c1ccccc1
-0.05	0.48	CCCCOCCCN1CC(=O)N2[C@@H](Cc3c([nH]c4ccccc34)C2(C)C)C1=O
1.06	0.35	COc1ccc(S(=O)(=O)NNC(=O)c2ccccc2-n2cccc2)cc1
0.05	0.37	CCc1ccc(S(=O)(=O)ON2C(=O)c3ccccc3C2=O)cc1

Entries of single compounds from above. Order of screens: KCNQ2 pot baseline	KCNQ2 pot
`O=C(NCC1CCCO1)c1ccccc1-c1nc(-c2ccccc2Cl)no1` (stereo not given) across the screens: 0.91	1.48
`CCc1ccc(S(=O)(=O)ON2C(=O)c3ccccc3C2=O)cc1` across the screens: 0.05	0.37
`COc1ccccc1OCCNC(=O)CC(NC(C)=O)c1ccccc1` (stereo not given) across the screens: -1.14	0.08
`Cc1sc2c(c1C)C(O)=C(C(=O)Nc1ccccc1)S(=O)(=O)N2C` across the screens: 0.01	0.01
`CCOc1cc(/C=N/Nc2nc(Nc3ccccc3)nc(N3CCCCC3)n2)ccc1OCC(=O)O` across the screens: -0.81	0.7

(cont.)
KCNQ2 pot baseline	KCNQ2 pot	Compound
0.6	1.04	c1ccc(Nc2ncnc3c2oc2ccccc23)cc1
-0.98	0.77	COC(=O)c1c(O)c2c([nH]c1=O)CCCC2
0.33	1.12	Cc1ccc(N=C2NC(=O)C(CC(=O)O)S2)cc1 (stereo not given)
1.36	0.36	CC(C)c1ccc(C(=O)OC2CCOC2=O)cc1 (stereo not given)
0.48	0.96	Cc1ccc(C)c(OCC(=O)Nc2ccc(S(=O)(=O)Nc3ccccn3)cc2)c1
0.43	0.82	CCOC(=O)c1ccc(NC(=O)N2CCN(CCc3ccccc3)CC2)cc1
0.01	0.71	CCOC(=O)c1cnc2c(C)c(Cl)ccc2c1NCCCN1CCOCC1
0	0.56	O=C(Nc1nnc(C2CC2)s1)c1ccccn1
0.11	1.34	CCNCCOC(c1ccccc1)c1ccccc1
0.33	0.25	N/C(CC(=O)Nc1ccc(F)cc1)=N\O
-1.02	0.8	COc1ccc(NC(=O)CN2C(=O)c3cccc4cccc2c34)cc1OC
-1.44	0.9	COc1ccccc1-c1nnc(NC(=O)c2ccc(S(=O)(=O)N3CCCC3)cc2)o1
0.55	0.73	CC(C)c1ccc(C2C(C#N)=C(N)Oc3c2oc(CO)cc3=O)cc1 (stereo not given)
1.83	0.21	O=C(NC1CCCCC1)n1c(=O)oc2ccc(Cl)cc21
0.03	0.99	CCC(c1nnc(SCC(=O)Nc2ccc(C(C)=O)cc2)n1C1CCCCC1)N(C)C (stereo not given)
1.34	1.06	Cc1cc(C)cc(Nc2nc(-c3ccc(S(=O)(=O)N4CCCC4)cc3)cs2)c1
0.01	0.14	O=C(O)CN1C(=O)S/C(=C\c2ccc3c(c2)OCO3)C1=O
-0.28	0.46	Cc1cccc(OCC(=O)N/N=C\C=C\c2ccc3c(c2)OCO3)c1C
0.04	1.03	CCCc1ccc(OCC(O)CN2CCCC2)cc1 (stereo not given)
-0.27	0.04	CCOC(=O)C1=C(N)Oc2ccc3ccccc3c2C1c1cccnc1 (stereo not given)
0	0.67	COc1cccc(CNc2ncnc3cc(Cl)ccc23)c1
-1.29	0.9	Cc1ccc(S(C)(=O)=NC(=O)NC(=O)c2c(Cl)cccc2Cl)cc1 (stereo not given)
-0.14	1.25	O=C(C1CCN(S(=O)(=O)c2ccccc2)CC1)N1CCCCCC1
-0.04	0.02	CCC(=O)C1CCCN(C(=O)CCc2nnc(-c3ccc(C(C)=O)s3)o2)C1 (stereo not given)
-1.1	0.89	NNC(=O)c1sccc1OCc1ccc(Cl)cc1
-2.39	0.15	O=C(COc1ccc2c3c(c(=O)oc2c1)CCCC3)NCc1ccncc1
-2.39	0.91	COCCNC(=O)CN1C(=O)COc2ccc(S(=O)(=O)N3CCCCCC3)cc21
0.26	0.15	CCC1=C2CC[C@H]3C(=O)N(CC)C(=O)[C@H]3[C@H]2[C@@]2(Cc3ccccc3)C(=NCCOC)OC(=O)N2C1=O
1.43	1.54	CC(C)=CC(=O)N1CCC(n2nccc2NC(=O)CCc2ccccc2)CC1
-0.81	0.26	O=C(N/N=C/C1CC=CCC1)c1ccc(Cl)cc1O (stereo not given)
0.34	1.3	COc1ccc(-c2nnc(SCC(=O)Nc3cc(F)ccc3C)o2)cc1
-0.99	1.21	Cc1cc(SCC(=O)NCCN2C(=O)CSC2=O)nc2c(C)cccc12
0.04	1.08	CC(=O)NC(CC(=O)Nc1ccc(S(=O)(=O)N2CCCCC2)cc1)c1ccccc1 (stereo not given)
1.03	0.23	CCCN1CCc2c(sc(NC(=O)c3ccc(S(=O)(=O)N4CCCC4)cc3)c2C(N)=O)C1
-0.37	1.15	CCn1c(SCC(=O)NC(C)(C)C)nnc1-c1ccoc1C
0.62	0.71	O=C(COc1cccc2cccnc12)N/N=C/c1ccc(O)cc1
-0.76	1.73	c1ccc(C2=Nc3cccc4cccc(c34)N2)cc1
-2.86	0.54	C=CCc1ccc(O)c(-c2ccc(O)c(CC=C)c2)c1
0.01	1.11	Cc1ccc2nc(NC(=O)c3ccc(Cl)s3)sc2c1
0.55	0.62	COc1cccc(CN(C)C(=O)Cc2c[nH]c3ccccc23)c1OC
0.39	0.74	COc1ccc(S(=O)(=O)NCC(c2ccc(C)cc2)N2CCN(C)CC2)cc1OC (stereo not given)
0.4	1.25	O=C(O)CCCCCNCc1ccncc1
-0.37	1.24	CC1=C(C(N)=O)C(c2ccccn2)n2nc(SCc3ccccc3)nc2N1 (stereo not given)
-0.02	1.44	CC1Cc2ccccc2N1C(=O)CSc1nnc(Cn2nnc3ccccc32)n1C (stereo not given)
0.7	0.72	CCc1ccc(Oc2coc3cc(OC(=O)c4cc5ccccc5oc4=O)ccc3c2=O)cc1
0.86	0.48	CN(C)c1ccc(/C=N/NC(=O)Cn2nnc3ccccc32)cc1
-1.89	0.15	CCC(C)Nc1c([N+](=O)[O-])cc(C)cc1[N+](=O)[O-] (stereo not given)
-0.1	0.31	O=C(CSc1nc2ccccc2s1)Nn1cnnc1
1.67	1.25	COc1ccc(N2CCN(C(=O)c3cc(=O)c4cc(C)ccc4o3)CC2)cc1
1.55	0.17	CCCn1c(=O)[nH]c(=O)c2c1nc(-c1ccc(OC(F)F)cc1)n2CCN1CCOCC1

Next entries follow:
KCNQ2 pot baseline	KCNQ2 pot	Compound
-0.27	1.01	CCOC(=O)C1(Cc2cccc(Cl)c2)CCCN(C(=O)CCNC(C)=O)C1 (stereo not given)
-0.49	1.09	CN(C)C(=O)c1cc(C(=O)c2ccccc2Br)c[nH]1
-1.25	0.59	CCCSc1nnc(NC(=O)CCc2ccccc2)s1
-0.46	0.16	COC(=O)Oc1ccc(/C=N/NS(=O)(=O)c2ccccc2)cc1OC
-2.04	0.02	CN(C)S(=O)(=O)c1cccc(C(=O)NCCNC(=O)c2cccc(S(=O)(=O)N(C)C)c2)c1
-1.12	2.61	O=C(NCc1ccccn1)c1cccc(NS(=O)(=O)c2cccc(Cl)c2)c1
-1.58	0.04	Cc1cccc(NC(=O)NCC2CCN(c3ccc(S(=O)(=O)N4CCOCC4)cc3)CC2)c1
0.38	1.23	O=C(COc1ccc(Cl)cc1)Nc1cc(NC(=O)COc2ccc(Cl)cc2)cc(C(=O)O)c1
0.44	0.52	O=C(NC1CC2CCCC(C1)N2C(=O)Nc1ccccc1F)C1CC1 (stereo not given)
-0.28	1.68	COc1ccc(C(=O)Nc2ccc(-n3nncc3C(C)(C)C)cc2)cc1
-0.22	1.43	Cc1cccc(N2CC(C(=O)Nc3ccc(S(=O)(=O)N4CCOCC4)cc3)CC2=O)c1 (stereo not given)
-2.38	0.7	COc1cc(OC)c(S(=O)(=O)Nc2ccccc2NC(=O)CN2CCOCC2)cc1NC(C)=O
1.17	0.33	CCCCC(=O)N/N=C/c1ccc(-c2ccc([N+](=O)[O-])cc2)o1
-1.63	1.06	COc1ccc(NC(=O)N2CCC(n3cnc4ccccc43)CC2)cc1
0.15	0.59	CCOC(=O)Cn1c2c(c(=N)c3c1CCC3)CCC2

Only part of the results is shown; count on the stated rates, not on these rows.
